RE007 growth inh: less growth of the S. pombe RE007 Vpr strain. S. pombe RE007 Vpr strain, BacTiter-Glo ATP luminescence, 24 h; control for the full effect not named in the record. Potency, µM (top dose mostly 92.2 µM), for the others: at the top dose activity change, negative = less growth. 0.21% of 360,000 active. AID 651644; active = well fitted falling curve with a large enough effect; inconclusive = small, poorly fitted or top-dose-only effect; inactive = no such curve, though single readings can be large or run the other way;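 also: % is scaled to controls: 0 for no effect and ±100 for the full control effect; nearly all actives have a fitted effect of over 50% in size; the assay follows cell death caused by Vpr and the record does not say whether a fall means rescue or toxicity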
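Fission yeast strain RE007, carrying one chromosomally integrated HIV-1 vpr copy, was seeded at OD 0.01 in PMG+AL medium with 23 nL pinned compound. After 24 h at 30 °C and 99% humidity, viability was read by BacTiter-Glo luminescence.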
StopGo reporter: FMDV 2A StopGo reporter, luciferase signal; human cells with a luciferase reporter of 2A StopGo recoding; control for the full effect not named in the record; Potency, µM (top dose mostly 57.9 µM), inactives show at the top dose signal change, negative = less light; 1.2% of 410,000 active; active = well fitted falling curve with a large enough effect; inconclusive = small, poorly fitted or top-dose-only effect; inactive = no such curve, though single readings can be large or run the other way; tested in HEK293T cells; also: % is scaled to controls: 0 for no effect and ±100 for the full control effect; nearly all actives have a fitted effect of over 45% in size; luciferase light after 4 h
NS1 function inh: blocks influenza NS1 protein function. S. cerevisiae slowed by influenza A NS1, growth recovery by OD600. Potency, µM (top dose mostly 46.1 µM), inactives show at the top dose activity, positive = more growth. 0.4% of 270,000 active. AID 2326; active means well fitted rising curve with a large enough effect; inconclusive means small, poorly fitted or top-dose-only effect; inactive means no such curve, though single readings can be large or run the other way; also: nearly all actives have a fitted effect of over 50% in size
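Recovery from NS1-induced slow growth read by OD600 in budding yeast switched to galactose assay medium (pH 6.0, -URA) at 1:100 dilution. Compound 23 nl per well; the matching strain lacking NS1 serves as control.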
Cruzain inh noDet: inhibitors of Trypanosoma cruzi cruzain without detergent. purified cruzain, Z-FR-AMC fluorescence, no detergent. Potency, µM, without a hit: max response, negative = inhibition, hits mostly inhibitors. 2.3% of 200,000 active;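 also: plate controls were enzyme without inhibitor for no effect and buffer without enzyme for full effect; nearly all actives have a fitted effect of over 40% in size; top concentration of the series not given in the record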
Target sequence (P25779 123-467 limits assumed): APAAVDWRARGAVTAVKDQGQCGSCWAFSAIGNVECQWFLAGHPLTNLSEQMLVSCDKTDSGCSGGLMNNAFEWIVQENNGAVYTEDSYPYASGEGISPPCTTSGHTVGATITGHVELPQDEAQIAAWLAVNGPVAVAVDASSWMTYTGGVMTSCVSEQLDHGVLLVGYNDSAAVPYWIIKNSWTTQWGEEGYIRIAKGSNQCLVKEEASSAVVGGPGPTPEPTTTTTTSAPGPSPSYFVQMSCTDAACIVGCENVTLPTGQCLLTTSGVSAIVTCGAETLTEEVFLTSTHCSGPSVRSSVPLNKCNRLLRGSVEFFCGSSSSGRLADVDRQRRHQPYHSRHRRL
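Detergent-free condition (0.00005% Triton X-100) in acetate buffer pH 5.5 with DTT. 1.5 nM enzyme and compound were pre-mixed 15 min, then 2 uM Z-FR-AMC substrate added; reaction progress from fluorescence change between first and third reads (60 s).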
SARS PLP yeast: inhibitors of SARS-CoV papain-like protease in yeast; S. cerevisiae expressing SARS-CoV PLpro, growth rescue; control for the full effect not named in the record; Potency, µM (top dose mostly 32.9 µM), without a hit: at the highest dose activity, positive = growth rescue; 0.19% of 330,000 active; AID 485353; active means well fitted rising curve with a large enough effect; inconclusive means small, poorly fitted or top-dose-only effect; inactive means no such curve, though single readings can be large or run the other way; also: 0% is about no effect; nearly all actives have a fitted effect of over 55% in size; growth read by luminescence after 48 h
Cruzain Triton: blocks cruzain activity in presence of Triton detergent; Potency, µM, for the others: max response, negative = inhibition, usual class: inhibitors; purified cruzain, Z-FR-AMC fluorescence, 0.01% Triton; 0.43% of 200,000 active; P25779;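 also: plate controls were neutral wells for no effect and buffer without enzyme for full effect; nearly all actives have a fitted effect of over 40% in size; top concentration of the series not given in the record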
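Detergent-containing run (0.01% Triton X-100) in acetate buffer pH 5.5 with 5 mM DTT: enzyme at 1.5 nM final, 15 min compound preincubation at room temperature, then 2 uM Z-FR-AMC substrate. Activity taken as 60 s fluorescence increase at 360/450 nm.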
Lassa entry inh: Lassa virus entry inhibition; Lassa virus pseudotype entry inhibition, cell reporter; control for the full effect not named in the record; Potency, µM (highest dose often 37.9 µM), without a hit: at the top dose activity change, negative = inhibition, actives largely listed as inhibitors; 1.2% of 300,000 active; active means well fitted inhibition curve with a large enough effect; inconclusive means small, poorly fitted or top-dose-only effect, or effect the other way; inactive means flat fitted curve, though single readings scatter; tested in HEK293 cells; also: % is scaled to controls: 0 for no effect and ±100 for the full control effect; nearly all actives have a fitted effect of over 50% in size; luciferase read-out
MARV entry inh: blocks Marburg virus binding to or entry into cells; Marburg virus pseudotyped entry inhibition, cell reporter; control for the full effect not named in the record; about a third of the inactives were read at about 46 µM; 1.8% of 300,000 active; Potency, µM (doses to about 37.8 µM), for inactives: at the highest dose activity change, negative = inhibition, most hits filed as inhibitors; active = well fitted inhibition curve with a large enough effect; inconclusive = small, poorly fitted or top-dose-only effect, or effect the other way; inactive = flat fitted curve, though single readings scatter; tested in HEK293 cells; about a fifth of its hits are not listed in these tables; also: % is scaled to controls: 0 for no effect and ±100 for the full control effect; luciferase read-out
Active calls of the source: *; ? = inconclusive; · = no result given; & = joins results of further samples; [ ] = dose if it differs, or a comment. Unless noted, calls follow the shape of the dose curve; as a rule, active = well fitted curve in the direction sought with a large enough effect; inconclusive = small, poorly fitted or top-dose-only effect, or another doubt; inactive = no such curve, though single readings can be large; an effect the other way counts as inactive or inconclusive. Potency is read from the fitted curve at half-maximal effect.

#1 c1ccc(Cn2c(NCc3ccco3)nc3ccccc32)cc1
#2 CN(C)CCNC(=O)CN1C(=O)CSc2ccc(S(=O)(=O)N3CCCCC3)cc21
#3 COc1ccc(C(=O)Cn2nnc(-c3ccccc3F)n2)cc1
#4 CCOc1cc(N2CCOCC2)c(OCC)cc1NC(=O)CN1C(=O)NC(CC(C)C)C1=O (configuration not stated)
#5 Cc1cnc(NC(=O)CSc2nnc(CNc3ccc(F)cc3)n2CC2CCCO2)s1 (configuration not stated)
#6 COc1cccc2[nH]c3c(N4CCC5(CC4)OCCO5)ncnc3c12
#7 O=C(O)/C=C/C(=O)Nc1ccc(C2(c3ccc(NC(=O)/C=C/C(=O)O)cc3)c3ccccc3-c3ccccc32)cc1
#8 Cc1csc(NC(=O)C2=NN(c3ccccc3)C(=O)CC2)n1
#9 Cc1ccc(C)c(OCCCN2CCCC2)c1
#10 CS(=O)(=O)c1ccc(Cl)c(NC(=O)COC(=O)CNC(=O)c2ccc3ccccc3c2)c1

assay / entry,1,2,3,4,5,6,7,8,9,10
RE007 growth inh,-15.2%,7.7%,-5.4%,-17.2%,-2.6%,-1.5%,-13.1%,1.1%,0.0%,2.6%
StopGo reporter,-7.8%,-25.9%,0.0%,-12.5%,-3.2%,-10.1%,4.5%,5.0%,-17.5%,8.0%
NS1 function inh,-30.3%,2.2%,-14.3%,·,0.0%,1.5%,24.2%,-0.4%,9.1%,·
Cruzain inh noDet,-1.7%,·,-2.4%,·,-4.3%,·,·,·,-3.1%,·
SARS PLP yeast,-1.6%,1.1%,-2.5%,1.1%,5.7%,-0.5%,-3.3%,0.4%,6.8%,2.2%
Cruzain Triton,6.8%,·,-2.7%,·,3.7%,·,·,·,1.3%,·
Lassa entry inh,-11.9%,·,-5.1%,-5.3%,0.3%,·,·,0.9%,-28.8%,17.2%
MARV entry inh,19.6%,·,2.2%,0.8%,?,·,·,2.6%[46.1 µM],-29.4%,26.4%

#11 COc1ccc(Cl)cc1NC(=O)c1c(C(=O)Nc2cccc(C)c2C)sc2nc(C)cc(=O)n12
#12 N#Cc1cccc(-n2c(-c3ccccc3)nnc2-c2ccccc2)c1C#N
#13 Cc1cccc(OC(=O)CSc2nnc(CNC(=O)c3ccccc3)o2)c1C
#14 O=C(Nc1ccc(C(F)(F)F)cc1-c1ccccc1)c1ccccc1
#15 CCOC(=O)c1ccc(OC(=O)CCCCCN=C(N)N)cc1
#16 COc1cc(CC(=O)OCC(=O)Nc2ccc(S(=O)(=O)N3CCCC3)cc2)cc(OC)c1OC
#17 CCCCCCCCCCOC(=O)Cn1c(COc2ccccc2C)[n+](C)c2ccccc21
#18 CN(C)CCCNC(=O)/C(=C\C=C\c1ccccc1)NC(=O)c1ccc([N+](=O)[O-])cc1
#19 Cc1ccc(N2CCC(N3CCN(C)C(CCO)C3)CC2)cc1 (configuration not stated)
#20 CC(C)Cc1nnc(NC(=O)CCC(=O)NCCc2ccccc2)s1

assay / entry,11,12,13,14,15,16,17,18,19,20
RE007 growth inh,·,-7.1%,·,7.3%,-5.3%[18.4 µM],4.8%,-9.8%,-15.1%,9.8%,-2.9%
StopGo reporter,-14.9%,-2.8%,16.8%,-8.2%,-16.2%&-3.0%,-26.4%,?,-3.8%,-10.3%,-3.8%
NS1 function inh,·,26.0%,·,25.3%,·,-11.0%,-138.0%,0.1%,9.5%,-0.2%
Cruzain inh noDet,0.9%,?,-11.8%,0.1%,9.2%&-15.5%,18.0%,·,·,·,·
SARS PLP yeast,·,-4.4%,·,?,·,7.6%,-14.7%,0.9%,-6.7%,16.3%
Cruzain Triton,-5.6%,-8.5%,-6.6%,0.6%,-3.1%&-11.2%,-1.8%,·,·,·,·
Lassa entry inh,?,-0.6%,21.7%[46.1 µM],-1.5%,·,-2.1%,8.91µM*,?,26.4%[46.1 µM],·
MARV entry inh,?,-13.0%&-13.0%,?,-5.8%,·,?,25.1µM*,?,?,·

#21 O=C(c1ccc(Cn2cnnn2)cc1)N1CCCC(Nc2ccc(F)c(F)c2)C1 (configuration not stated)
#22 Cc1cn2c(=O)c(C(=O)N3CCN(c4ccccc4Cl)CC3)cnc2s1
#23 Cc1ccc(SC(=O)c2c([N+](=O)[O-])c(C)nn2C)cc1
#24 CC1Cc2nc(SCC(=O)N3CCCc4ccccc43)n(C)c(=O)c2S1 (configuration not stated)
#25 COCCCNC(NC(=O)c1ccc(Br)cc1)C(Cl)(Cl)Cl (configuration not stated)
#26 CC(C)(C)NC(=O)c1ccc(NC(=O)CSc2ccccc2)cc1
#27 COc1ccccc1CNCc1cc(OC)c(OC)c(OC)c1
#28 Cc1noc(NS(=O)(=O)c2ccc(N/C=C/C(=O)c3ccncc3)cc2)c1C
#29 CCOC(=O)c1ccc(NS(=O)(=O)c2ccc(Br)s2)cc1
#30 CNS(=O)(=O)c1cccc(C(=O)OCC(=O)Nc2ccc(Cl)cc2F)c1

assay / entry,21,22,23,24,25,26,27,28,29,30
RE007 growth inh,-5.2%,-6.1%,?,-6.1%,2.2%,14.0%,-28.9%,3.0%,·,4.2%
StopGo reporter,-3.0%,-13.2%,?,?,0.0%,15.2%,-1.2%,26.2%,3.5%,-8.7%
NS1 function inh,1.1%,·,-53.9%,-47.2%,-7.3%,-7.8%,·,0.3%,·,-3.2%
Cruzain inh noDet,·,·,·,-8.7%,10.4%,·,·,-10.2%,-12.3%,·
SARS PLP yeast,-1.0%,2.5%,-3.0%,22.6%,0.3%,-0.7%,-2.3%,-1.8%,·,-1.9%
Cruzain Triton,·,·,·,-7.6%,-0.5%,·,·,-5.3%,-12.7%,·
Lassa entry inh,·,16.3%,-12.6%,·,11.3%,23.4%[46.1 µM],-4.2%[46.1 µM],4.5%,0.6%[46.1 µM],-10.4%
MARV entry inh,·,20.8%,9.8%[46.1 µM],·,5.8%,1.9%[46.1 µM],-21.2%[46.1 µM],-16.5%,14.2%[46.1 µM],0.5%[46.1 µM]

#31 CCOc1ccccc1CN1CCCC(CNS(=O)(=O)c2ccc(OC)cc2)C1 (configuration not stated)
#32 Cc1csc(NC(=O)c2cc(=O)[nH]c3ccccc23)n1
#33 COc1ccc(C2/C(=C(/O)c3ccc(Br)cc3)C(=O)C(=O)N2C)cc1 (configuration not stated)
#34 O=C(Nc1ccc(-c2cc(C(F)(F)F)nn2-c2ccccc2)cc1)c1cccc(F)c1
#35 CC1=NN(C(=O)c2ccccc2Br)C(O)(c2cccnc2)C1 (configuration not stated)
#36 Cc1ccc(Cn2c(CN(C)Cc3ccccc3)nc3c2c(=O)n(C)c(=O)n3C)cc1
#37 Cc1ccc(Oc2c(C)nc(-c3ccccc3)[nH]c2=O)cc1
#38 COc1ccc(C2CC2/C(=N/O)c2ccccn2)cc1 (configuration not stated)
#39 CC(C)(C)NS(=O)(=O)c1ccc(NC(=O)Cc2ccccc2[N+](=O)[O-])cc1
#40 O=C(COc1ccc(Cl)cc1)Nc1ccc2nc(SCC(=O)N3CCCC3)sc2c1

assay / entry,31,32,33,34,35,36,37,38,39,40
RE007 growth inh,-11.7%,-3.0%,6.3%,·,1.7%,19.0%,-7.1%,-5.3%,-9.3%,·
StopGo reporter,-16.5%,-12.1%,-6.6%,-10.9%,-0.2%,?,?,34.7%[activator],25.1%,?
NS1 function inh,5.5%,-2.5%,3.0%,·,-4.1%,-97.8%,-2.3%,·,6.9%,·
Cruzain inh noDet,·,·,·,20µM*,-1.0%,?,·,·,·,7.5%
SARS PLP yeast,0.8%,-0.9%,1.1%,·,5.6%,-6.1%,0.6%,?,0.2%,·
Cruzain Triton,·,·,·,-6.1%,-2.5%,0.5%,·,·,·,-6.9%
Lassa entry inh,·,·,·,?,-5.6%,?,?,4.5%,7.9%,1.9%[46.1 µM]
MARV entry inh,·,·,·,?,-8.6%,-21.7%,?,6.6%[46.1 µM],-12.9%[46.1 µM],-11.2%[46.1 µM]

#41 Cc1ccc(-c2c[n+](CC(=O)OCc3ccccc3)c3n2CCC3)cc1
#42 Cc1ccc(S(=O)(=O)N/N=C\c2cc3c(cc2Br)OCO3)cc1
#43 Cc1sc2ncnc(N3CCC(C(=O)NNC(=O)COc4ccccc4Cl)CC3)c2c1C
#44 CCOC(=O)C1=NNC2C(=O)N(CC)C(=O)C12 (configuration not stated)
#45 O=C(C1=C[C@H](c2ccc(C(F)(F)F)cc2)C[C@H](OCc2ccc(CO)cc2)O1)N1CCN(Cc2ccc3c(c2)OCO3)CC1
#46 Oc1ccc(CN2CCN(Cc3ccccc3)CC2)c2cccnc12

assay / entry,41,42,43,44,45,46
RE007 growth inh,-7.8%,-28.4%,34.2%,29.8%,-0.8%,18.4%
StopGo reporter,-20.9%,26.0%,35.5µM*,-10.2%,?,-7.5%
NS1 function inh,-5.2%,8.1%,·,-0.4%,-4.1%,-1.8%
Cruzain inh noDet,-7.7%,6.2%,·,10.3%,·,-2.9%
SARS PLP yeast,-1.1%,-19.7%,-13.2%,-1.2%,-2.4%,-2.9%
Cruzain Triton,-0.7%,-8.2%,·,2.1%,·,-1.6%
Lassa entry inh,3.0%,?,5.3%,-1.8%,·,?
MARV entry inh,?,?,?,13.6%,·,-13.1%

Reprinted at random: 3 compounds from above
#43 Cc1sc2ncnc(N3CCC(C(=O)NNC(=O)COc4ccccc4Cl)CC3)c2c1C
#44 CCOC(=O)C1=NNC2C(=O)N(CC)C(=O)C12 (configuration not stated)
#46 Oc1ccc(CN2CCN(Cc3ccccc3)CC2)c2cccnc12

assay / entry,43,44,46
RE007 growth inh,34.2%,29.8%,18.4%
StopGo reporter,35.5µM*,-10.2%,-7.5%
NS1 function inh,·,-0.4%,-1.8%
Cruzain inh noDet,·,10.3%,-2.9%
SARS PLP yeast,-13.2%,-1.2%,-2.9%
Cruzain Triton,·,2.1%,-1.6%
Lassa entry inh,5.3%,-1.8%,?
MARV entry inh,?,13.6%,-13.1%

Bioassay records as filed in PubChem BioAssay.
